Source: PubChem (National Center for Advancing Translational Sciences (NCATS))
TRPML1 ag = activates the human TRPML1 channel; Q9GZU1; TRPML1-expressing cells, Ca2+ dye fluorescence, FDSS; host cell line not named in the record; reference of the full effect not given here; activation, % (concentration not given with the values); 0.12% of 410,000 active; in the data active = activation above about 50%; inconclusive = about 30% to 50%; inactive = below about 30%; also: 0% is about no effect; the text of the record puts the active cut at 80%
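Tetracycline-induced TRPML1-DL cells are seeded and incubated overnight before loading with a no-wash Ca2+ dye and quencher. Agonist activity is taken from the 110 s fluorescence read following compound pin-transfer on an FDSS, before EC80 54-4 challenge.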
Six1-Eya2 blk = blocks human Six1 binding to Eya2; Q15475+O00167; AlphaScreen GST-Six1/His-Eya2 binding, biochemical; active compounds read low; control for the full effect not named in the record; activity change, % (test concentration not listed); 0.56% of 360,000 active; in the data active = activity change below about -65%; inconclusive = about -30% to -65%; inactive = above about -30%; also: % is scaled to controls: 0 for no effect and ±100 for the full control effect
Target sequence (O00167 whole entry, looked up): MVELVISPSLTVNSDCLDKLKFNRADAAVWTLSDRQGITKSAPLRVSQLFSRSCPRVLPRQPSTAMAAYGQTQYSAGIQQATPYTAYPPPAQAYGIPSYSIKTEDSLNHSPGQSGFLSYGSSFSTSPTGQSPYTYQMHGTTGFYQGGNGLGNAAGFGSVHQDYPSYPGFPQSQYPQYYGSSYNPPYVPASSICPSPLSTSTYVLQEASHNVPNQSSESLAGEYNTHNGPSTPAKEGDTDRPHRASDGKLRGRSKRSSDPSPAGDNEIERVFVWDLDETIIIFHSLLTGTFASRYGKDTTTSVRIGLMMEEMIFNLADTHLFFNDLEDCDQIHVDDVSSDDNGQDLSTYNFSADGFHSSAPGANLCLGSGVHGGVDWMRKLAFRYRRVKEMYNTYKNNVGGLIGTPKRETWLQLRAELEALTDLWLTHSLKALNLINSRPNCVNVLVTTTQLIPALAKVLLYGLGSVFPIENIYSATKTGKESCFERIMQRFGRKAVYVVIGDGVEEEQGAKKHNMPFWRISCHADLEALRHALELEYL
Target sequence (Q15475 whole entry, looked up): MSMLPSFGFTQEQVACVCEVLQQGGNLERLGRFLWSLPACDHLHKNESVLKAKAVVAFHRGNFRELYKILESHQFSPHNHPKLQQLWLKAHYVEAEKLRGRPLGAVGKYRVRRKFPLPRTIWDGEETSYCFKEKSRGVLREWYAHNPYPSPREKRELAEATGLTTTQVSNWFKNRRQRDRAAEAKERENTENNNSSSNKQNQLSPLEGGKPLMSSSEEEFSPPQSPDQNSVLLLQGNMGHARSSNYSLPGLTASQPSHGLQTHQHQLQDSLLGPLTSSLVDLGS
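GST-Six1 + His-Eya2 (5X stock: 250/500 nM); Tris pH 8.0, 300 mM NaCl, 0.05% BSA, 0.02% Tween 20; GSH donor/Ni acceptor beads; 1 h 37 °C dark; AlphaScreen readout.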
TRPV1 potentiator = human TRPV1 potentiation. Q8NER1. TRPV1-expressing cells, Fluo-8 calcium influx, capsaicin EC20 potentiation; host cell line not named in the record; control for the full effect not named in the record. potentiation, % at 8.33 µM. 0.02% of 320,000 active. AID 540277; active means potentiation above 80%; inconclusive means 30% to 80%; inactive means below 30%; also: 0% is about no effect
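TRPV1-expressing cells were cultured overnight at 35.5C and loaded with Fluo-8 calcium dye for 40 to 90 min at room temperature. After a 10 s baseline, compound was added and calcium influx was read kinetically for 3 min (ex 480/em 520 nm).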
D2 potentiator = human D2 receptor positive allosteric modulation; potentiation, % (concentration not given with the values); P14416; DiscoveRx D2 beta-arrestin cells, luminescence, 90 min; 100% = 57 uM dopamine signal; 0.23% of 360,000 active; active = potentiation of 50% or more; inconclusive = 30% to 50%; inactive = 30% or less;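 also: compound concentration not given in the record; tested on top of an EC20 dose of dopamine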
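PathHunter D2 cells, attached overnight at 37 deg C, received compound in DMSO plus dopamine at EC20 (50 nM final) for 90 min at 37 deg C. Beta-arrestin recruitment was read as luminescence after 1 h with detection reagent at ambient temperature.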
CtBP-E1A inh = blocks the CtBP interaction with E1A; AlphaScreen GST-E1A/His-CtBP binding, 1536-well; active compounds read low; control for the full effect not named in the record; activity change, % (test concentration not listed); 0.49% of 340,000 active; in the data active means activity change below about -65%; inconclusive means about -30% to -65%; inactive means above about -30%; also: % is scaled to controls: 0 for no effect and ±100 for the full control effect
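Homogeneous bead-based format: GST-tagged E1A captured on glutathione donor beads, His-tagged CtBP on nickel acceptor beads; compounds precede bead addition by 2 h at 37 °C.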
TRPML1 inh = inhibitors of human TRPML1 channel | Q9GZU1 | activity change, negative = inhibition, % (no concentration beside the values) | TRPML1-inducible cells, Ca2+ dye fluorescence, FDSS; active compounds read low; inhibition of EC80 agonist-evoked calcium signal | AID 624415 | 0.02% of 390,000 active; in the data active means activity change below about -50%; inconclusive means about -30% to -50%; inactive means above about -30%;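 also: stimulus is agonist 54-4 at its EC80 concentration; % is scaled to controls: 0 for no effect and ±100 for the full control effect; compound concentration not given in the record; the text of the record puts the active cut at -80%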
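Calcium fluorescence in TRPML1-DL cells induced overnight with Tet: a 110 s read after compound pin addition, then a 110 s antagonist read after challenge with 54-4 at 4 uM final (EC80).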
Starred values were filed as active, the others as inactive; ? = inconclusive; . = not tested or not shown; & = joins results of further samples.

SMILES | TRPML1 ag | Six1-Eya2 blk | TRPV1 potentiator | D2 potentiator | CtBP-E1A inh | TRPML1 inh
CC(Oc1ccccc1[N+](=O)[O-])C(=O)N/N=C/c1ccoc1 (stereo not given) | 0.4 | -9 | 2 | -3 | -21 | -15
O=C(CN1CCCCC1)Nc1ccccc1C(=O)NC1CC1 | 0.6 | 6 | -7 | -9 | -16 | 28
CCCN(CCC)CCCNC(=O)C1c2cc(OC)c(OC)cc2C(=O)N(C)C1c1cccs1 (stereo not given) | 0.7 | 4 | -6 | 3 | -12 | 5
COc1ccc(C(CNC(=O)COc2ccccc2-c2ccccc2)N2CCOCC2)cc1 (stereo not given) | 2.6 | -3 | -14 | -9 | -2 | 13
COc1ccc(-c2cc3c(=O)n(CC(=O)NCCCN4CCN(Cc5ccccc5)CC4)ncn3n2)cc1 | 3.9 | 3 | 29 | -18 | . | 21
O=C(Nc1ccccc1F)C1COc2ccccc2O1 (stereo not given) | 0.9 | 13 | -9 | -1 | . | 5
Cc1noc(C)c1COC(=O)c1ccccc1Sc1ccccc1C#N | 0.8 | 7 | 12 | 2 | 5 | 30
CCCCOC(=O)C1=C(N)N2C(=O)C(C)SC2=C(C(=O)OCC)C1c1ccc(O)c(OC)c1 (stereo not given) | 29 | -7 | -6 | -11 | 0 | 6
Cc1ccc(S(=O)(=O)NC(=O)C2(C)CCN2C(=O)Cc2ccc(Cl)cc2Cl)cc1 (stereo not given) | -0.3 | -8 | . | -1 | -9 | .
CC(=O)NCCOc1nc(N(C)C)nc(N(C)C)n1 | 0.7 | 6 | -7 | -3 | 0 | -10
CCOc1cc(/C=N/NC(=O)c2ccc(N(C)S(=O)(=O)c3ccccc3)cc2)ccc1OC | -0.2 | ? | -9 | -3 | -5 | 10
CC(NC(=O)c1ccco1)C(=O)N1CCCCC1 (stereo not given) | -0.5 | 1 | -2 | -2 | -2 | 6
O=C(O)c1ccccc1NC(=O)c1ccccc1-c1ccccc1C(=O)O | 0.6 | 9 | -14 | 0 | 7 | -13
CNC(=O)C(=O)Nc1c(C)cc(C)cc1C | -1.0 | -7 | 13 | 4 | 6 | 13
CC(OC(=O)c1n[nH]c2ccccc12)C(=O)NC1CCCCC1C (stereo not given) | -0.2 | 3 | 4 | -5 | . | -9
O=C(NC(=S)NN1CCCCC1c1cccnc1)c1ccc(Cl)cc1Cl (stereo not given) | -0.1 | -6 | 3 | -4 | -6 | 0
Clc1ccc(C(CCN2CCCC2)Cc2ccccc2)cc1 (stereo not given) | 0.4 | 2 | 5 | -23 | 0 | 36
NC(=O)Cn1cc(/C=N\NS(=O)(=O)c2ccc(F)cc2)c2ccccc21 | -0.1 | -8 | -1 | -13 | 8 | -12
CCC(C)c1ccccc1NC(=O)CN1CCN(C/C=C/c2ccccc2)CC1 (stereo not given) | 0.2 | 0 | 14 | -8 | -4 | -5
CCCC/C=C1\CCc2c([nH]c3ccccc23)C1=O | -0.3 | 0 | 2 | -1 | 4 | -5
COc1ccc2ccc3ccc(OC)c(OC(C)=O)c3c2c1 | 2.6 | 12 | . | -20 | -16 | -8
Cc1ccc(S(=O)(=O)NC(Cc2c[nH]c3ccccc23)C(=O)O)cc1 (stereo not given) | 2.9 | -1 | . | 8 | 1 | 5
COc1ccc(CN2CCC(=O)N([C@H](CO)c3ccccc3)CC2)cc1 | 0.3&0.4 | 1 | -33 | -20 | 5 | -14
Cc1cc(C)c(NC(=O)C2CCCO2)c(C)c1 (stereo not given) | 0.4 | -3 | . | -5 | 5 | 81
CC(C)N1CCc2c(sc(NC(=O)c3cc(-c4cccs4)nc4ccccc34)c2C(N)=O)C1 | ? | 9 | 9 | 2 | -2 | 1
CCN1CCN(c2ccc(S(=O)(=O)N(CC)CC)cc2[N+](=O)[O-])CC1 | 1.0 | 1 | 19 | -17 | 3 | 15
CC(O)CNC(=O)c1ccc(-c2nn(C)c(=O)c3ccccc23)cc1 (stereo not given) | -0.2 | -2 | 7 | -32 | 6 | 8
O=C(CCC1CCCN(C(=O)c2ccsc2)C1)NCc1ccc(F)c(F)c1 (stereo not given) | -0.5 | -5 | -7 | -9 | 14 | -19
O=C(Cc1ccc2c(c1)OCCO2)c1c(O)cc(O)cc1O | 0.6 | -4 | -6 | -7 | 11 | 0
COC(=O)C1=C(C)NC(C)=C(C(=O)OC)C1C(=O)OCC(=O)c1ccc(Br)cc1 | -0.5 | -1 | 6 | -1 | 6 | 8
COc1ccc(/C(N)=N/OC(=O)C2CCC(=O)N2S(=O)(=O)c2ccc(C)cc2)cc1OC (stereo not given) | 3.0 | 0 | -9 | 13 | -6 | 19
CCCCn1c(-c2nn(C)cc2Cl)n[nH]c1=S | -1.0 | 3 | 18 | -7 | 1 | -21
CCOC(=O)c1[nH]c(COC(=O)CCOc2ccccc2OC)c(C(=O)OCC)c1C | 0.6 | -3 | 1 | -34 | 6 | 8
CCOC(=O)C1CCN(S(=O)(=O)c2cccc(-c3cn4cc(C)ccc4n3)c2)CC1 | 0.2 | -3 | -9 | 4 | 0 | -11
Cc1ccccc1C(=O)c1c[nH]c(C(=O)NCC2CCCO2)c1 (stereo not given) | 1.2 | 2 | 13 | -10 | 0 | -10
c1ccc(Cc2nnc3sc(-c4cccs4)nn23)cc1 | 0.8 | -1 | 9 | 1 | -5 | -2
Cc1cc(SCC(=O)Nc2ncc(Cl)cc2Cl)nc2ccccc12 | 3.8 | 4 | 5 | -6 | -7 | 4
CC(C)CC(=O)NC(=S)NCCc1ccccc1 | 2.9 | 4 | -3 | -12 | 9 | 25
COc1cc(C2NC(=S)NC(C)=C2C(=O)c2ccccc2)ccc1O (stereo not given) | -0.4 | -3 | 18 | -10 | 1 | -7
C=C(C)C(=O)N1CC2(CC(c3cccc(NC(=O)c4ccccc4)c3)=NO2)C[C@@H]1C(N)=O (stereo not given in full) | -0.3 | -4 | -1 | -8 | -1 | -2
CCn1cc(C(=O)NCCCOC)c(=O)c2cc(S(=O)(=O)N3CCC(C)CC3)ccc21 | 0.0 | 0 | -11 | -5 | -11 | 42
Cc1ccc(NC(=O)CNC(=O)c2ccccc2F)cc1Cl | 1.0 | -3 | -25 | -11 | 0 | -17
O=[N+]([O-])c1ccc(Nc2ccccn2)c([N+](=O)[O-])c1 | 0.4 | -16 | 13 | 9 | -5 | 16
CC(C)Oc1ccc(CNC(=O)CCC(=O)N2CCSc3ccccc32)cc1 | 1.0 | -1 | 5 | -4 | -1 | -2
CCOC(=O)C1(CC2CC2)CCN(S(=O)(=O)/C=C/c2ccccc2)CC1 | -0.3 | 4 | -5 | -2 | 15 | 5
COc1ccc(-c2nnc(SCC(=O)Nc3nc4ccccc4s3)n2C)cc1 | -0.3 | 8 | -7 | -18 | 10 | -9
Cc1ccccc1NC1=C(Cl)C(=O)OC1OC(=O)c1ccco1 (stereo not given) | 1.5 | -8 | 6 | -5 | -13 | 7
COc1ccc(CSc2nnnn2C)cc1[N+](=O)[O-] | -0.2 | 0 | -22 | -6 | 2 | -4
O=C(Cc1ccc([N+](=O)[O-])cc1)Nc1ccon1 | 0.4 | 6 | 9 | -5 | 7 | 0
COC(=O)c1ccc(NC(=O)CN2CCC(NC(=O)c3ccccc3F)CC2)cc1 | -0.2 | -2 | . | -17 | 7 | -16
Cc1cccc(NC(=O)CCc2nc3sc4c(c3c(=O)[nH]2)CCCC4)c1 | 1.3 | 18 | -7 | -36 | 0 | -10
Cc1ccc(C(C)NC(=S)NCc2ccc(F)cc2)cc1C (stereo not given) | -0.2 | -5 | 1 | -16 | -1 | 8
Cc1nn(-c2ccccc2)c(C)c1NS(=O)(=O)c1ccccc1 | 1.2 | 2 | 0 | -4 | 5 | -3
Cc1cc(OC(=O)c2cccc(F)c2)c([N+](=O)[O-])c(=O)[nH]1 | 0.1 | 7 | 18 | -6 | . | 1
O=C(OCC(=O)N1CCN(C(=O)c2ccco2)CC1)c1cc(-c2ccco2)nc2ccccc12 | 1.4 | -26 | 16 | -3 | -20 | -2
N#Cc1c(NC(=O)Cn2nc(C(F)(F)F)c3c2CCCC3)sc2c1CCC2 | -0.4 | 1 | 30 | 0 | 7 | 20
O=C(NCc1cccs1)Nc1ccc2c(c1)OCO2 | -0.8 | -5 | -10 | 8 | 4 | 17
Cc1cc(C)n(C(=O)c2ccc(C)c(S(=O)(=O)N3CCCC3)c2)n1 | -0.3 | -7 | -9 | -5 | -1 | 57
Cc1cc(C)cc(NC(=O)c2cccc(NC(=O)C3C4CC5OC(=O)C3C5C4)c2)c1 (stereo not given) | -0.1 | -2 | 2 | -8 | -5 | 7
COc1ccc(N(CC(=O)Nc2ccc(OC)c(Cl)c2)S(=O)(=O)c2c(C)noc2C)cc1 | 1.2 | -1 | 0 | -8 | -1 | -11

Reprinted from the part before: five compounds, followed by the next part.
SMILES | TRPML1 ag | Six1-Eya2 blk | TRPV1 potentiator | D2 potentiator | CtBP-E1A inh | TRPML1 inh
N#Cc1c(NC(=O)Cn2nc(C(F)(F)F)c3c2CCCC3)sc2c1CCC2 | -0.4 | 1 | 30 | 0 | 7 | 20
O=C(NCc1cccs1)Nc1ccc2c(c1)OCO2 | -0.8 | -5 | -10 | 8 | 4 | 17
Cc1cc(C)n(C(=O)c2ccc(C)c(S(=O)(=O)N3CCCC3)c2)n1 | -0.3 | -7 | -9 | -5 | -1 | 57
Cc1cc(C)cc(NC(=O)c2cccc(NC(=O)C3C4CC5OC(=O)C3C5C4)c2)c1 (stereo not given) | -0.1 | -2 | 2 | -8 | -5 | 7
COc1ccc(N(CC(=O)Nc2ccc(OC)c(Cl)c2)S(=O)(=O)c2c(C)noc2C)cc1 | 1.2 | -1 | 0 | -8 | -1 | -11
CC(C)(C)Cc1nnc(NC(=O)Cc2ccc([N+](=O)[O-])cc2)s1 | 0.7 | 9 | 1 | -7 | 15 | -4
COc1ccccc1-c1nc(SCC(=O)N2CCOCC2)n[nH]1 | -0.3 | 7 | 0 | -5 | -12 | -10
COc1ccc(NC(=O)NCc2ccc3c(c2)OCO3)c(OC)c1 | -0.6 | 4 | 2 | -9 | 5 | -5
Cc1ccc(CSc2nnc(NC(=O)Cn3cnc4ccccc4c3=O)s2)cc1 | 2.3 | -5 | 2 | 0 | . | -12
CCCCN(CC)Cc1ccc(CNC(=O)Nc2ccc(OC)cc2OC)o1 | -0.8 | -2 | 18 | -7 | 5 | -6
O=C(c1cccnc1)N1CCN(Cc2ccc3c(c2)OCO3)CC1 | 1.4 | -1 | -2 | -19 | 0 | 2
CCOc1ccc2nc(Cl)c(C3CC(c4ccccc4)=NN3C(=O)c3cccs3)cc2c1 (stereo not given) | 0.1 | 18 | -6 | -3 | . | -7

Complete entries, quoted from the list. Order of values: TRPML1 ag | Six1-Eya2 blk | TRPV1 potentiator | D2 potentiator | CtBP-E1A inh | TRPML1 inh
O=C(c1cccnc1)N1CCN(Cc2ccc3c(c2)OCO3)CC1 is listed as 1.4 | -1 | -2 | -19 | 0 | 2
Cc1ccc(CSc2nnc(NC(=O)Cn3cnc4ccccc4c3=O)s2)cc1 is listed as 2.3 | -5 | 2 | 0 | . | -12
COc1ccc(NC(=O)NCc2ccc3c(c2)OCO3)c(OC)c1 is listed as -0.6 | 4 | 2 | -9 | 5 | -5
CC(C)(C)Cc1nnc(NC(=O)Cc2ccc([N+](=O)[O-])cc2)s1 is listed as 0.7 | 9 | 1 | -7 | 15 | -4
